Bioassay records (PubChem BioAssay)
VDR inhibitor: Inhibitors of the vitamin D receptor (VDR): qHTS. Vitamin D3 receptor (Homo sapiens), P11473. VDR-SRC2-3 peptide fluorescence polarization, 2 h. 400,000 tested, 0.93% active. Potency, µM, without a hit: max response, negative = inhibition, hits mostly inhibitors; active means well fitted inhibition curve with a large enough effect; inconclusive means small, poorly fitted or top-dose-only effect, or another doubt; inactive means no such curve, though single readings can be large or run the other way; further: series mostly up to about 120 µM
Target sequence (P11473 whole entry, looked up): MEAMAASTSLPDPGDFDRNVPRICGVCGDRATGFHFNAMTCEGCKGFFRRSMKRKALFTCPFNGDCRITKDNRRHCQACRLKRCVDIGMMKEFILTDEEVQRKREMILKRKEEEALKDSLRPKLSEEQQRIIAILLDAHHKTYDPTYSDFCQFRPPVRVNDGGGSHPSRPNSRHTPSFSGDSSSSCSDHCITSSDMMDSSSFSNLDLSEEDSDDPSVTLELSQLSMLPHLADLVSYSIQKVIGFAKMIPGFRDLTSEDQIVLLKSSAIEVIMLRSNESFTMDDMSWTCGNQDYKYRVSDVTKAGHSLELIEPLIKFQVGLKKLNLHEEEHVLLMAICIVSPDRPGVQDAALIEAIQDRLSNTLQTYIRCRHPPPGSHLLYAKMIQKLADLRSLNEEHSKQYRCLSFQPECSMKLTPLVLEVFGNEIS
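Signal is fluorescence polarization, reporting how far test compounds block the interaction of VDR with the SRC2-3 coregulator peptide after a 2 h room-temperature incubation.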
Starred values were filed as active, the others as inactive; ? = inconclusive; & = joins results of further samples; [ ] = remark or other dose. On the % scale 0 is the no-effect control and ±100 the full control effect; potency means the concentration at half of the fitted maximal effect. An excerpt, so the mix of outcomes need not match the whole.

SMILES	VDR inhibitor
CCOC(=O)N1CCN(S(=O)(=O)N2CCCC(C(=O)NCCc3ccccc3)C2)CC1 (centres undefined)	-11%
Cc1ccccc1-c1nnc(SCC(=O)c2c(N)n(C3CC3)c(=O)[nH]c2=O)o1	-12%
Cc1cc(=O)oc2cc(OC(C)C(=O)Nc3ccc(N4CCOCC4)cc3)ccc12 (centres undefined)	-11%
O=C(Nc1cc2c(cc1Cl)OCCO2)c1ccco1	-4%
O=C(NC(Cc1ccccc1)C(=O)O)/C(=C\c1ccccc1)NC(=O)c1ccc(Br)o1 (centres undefined)	-3%
CCOc1ccc(NC(=O)COC(=O)CN2CCCCCC2=O)cc1	-9%
CC(=O)NC1CCN(C(=O)N2CCCC2)CC1	-6%
COc1ccc(CN2CCCC(C(=O)N3CCCC3)C2)cc1 (centres undefined)	-3%
c1ccc(-c2ccc(OCCN3CCCC3)cc2)cc1	-9%
CCOC(=O)N1CCN(c2ccc(S(=O)(=O)N3CCC(C)CC3)cc2[N+](=O)[O-])CC1	6%
O=c1[nH]cc(S(=O)(=O)N2CCN(c3cccc(C(F)(F)F)c3)CC2)c(=O)[nH]1	15%
O=S(=O)(c1ccc(F)cc1)N(CCO)CC(O)Cn1c2ccccc2c2ccccc21 (centres undefined)	11%
O=C(CCCN1C(=O)c2ccccc2C1=O)Oc1ccc(F)cc1	?
O=C(NCN1CCc2ccccc2C1)c1ccccc1	-10%
O=C(NCCSCc1ccco1)c1ccc(=O)[nH]c1	-14%
O=C(COC(=O)c1ccncc1)NCCCc1ccccc1	-7%
Cc1ccc(-c2nnc3n2N=C(c2ccc(Br)cc2)CS3)cc1	-15%
CCCOc1ccc(NC(=O)C2CC(=O)N/C(=N/N=C(\C)CCc3ccc4c(c3)OCO4)S2)cc1 (centres undefined)	-12%
CN1C(c2ccccc2)CCOS1(=O)=O (centres undefined)	9%
COc1ccccc1CN1CC(=O)N2CSC[C@H]2C1=O	-7%
Cc1ccc2nc(NC3=NCN(Cc4cccnc4)CN3)nc(C)c2c1	12%
CCc1ccccc1NC(=O)C(=O)NCCCN1CCOCC1	-7%
NS(=O)(=O)c1cc2c(cc1Cl)NCNS2(=O)=O	-2%&-2%&0%&-14%&-6%
COc1ccc(OC)c(NC(=O)c2cnn(-c3ccccc3Cl)c2NC(=O)c2ccco2)c1	12%
Cc1cc(-c2ccccc2)nc2[nH]n(-c3ccccc3)c(=O)c12	6%
Cc1cccc(C(=O)NCC(=O)N2CCN(S(=O)(=O)c3ccccc3)CC2)c1	-20%
CCCCS(=O)CC(O)CSc1nc(-c2ccc(OC)cc2)cc(-c2ccccc2)c1C#N (centres undefined)	-12%
CN1CCN(c2ncccc2S(=O)(=O)N2CCCCC2)CC1	-11%
O=C(NCCCN1CCN(c2cccc(Cl)c2)CC1)c1nnc(Cc2ccc(F)cc2Cl)o1	-6%
CC1=C(C(=O)Nc2ccccc2F)C(c2cccs2)NC(=S)N1 (centres undefined)	-12%
Cc1ccc(CN(c2ccc(C(=O)NCc3ccc4c(c3)OCO4)cc2)S(C)(=O)=O)cc1	1%
COc1ccc(NC(=O)c2cc([N+](=O)[O-])ccc2N2CCN(C)CC2)cc1	-3%
CN1CCN(C(=S)c2cn(Cc3cccc(F)c3)c3ccccc23)CC1	-5%
Cc1ccccc1Nc1nc(N)nc(COc2ccc(C#N)cc2)n1	12%
Cc1cc(NC(=O)C2COc3ccccc3O2)no1 (centres undefined)	-12%
CCOc1ccccc1CN1CCN(Cc2ccc3cccc(OC)c3n2)CC1CCO (centres undefined)	30%[activator]
CCOC(=O)c1ccc(Nc2cc(C)nc3ncnn23)cc1	0%
Cc1ccc(C(=O)Nc2ccc3c(c2)OCO3)cc1S(=O)(=O)N1CCOCC1	13%
CC(=O)Nc1ccc(NS(=O)(=O)C(F)(F)F)cc1	0%
CCOC(=O)C(=O)Nc1ccccc1C#N	14%
COc1ccc(CNC2C[C@H]3CCCC(=O)N4CC[C@@H](C2)[C@@H]34)cc1 (some centres undefined)	5%&1%
COc1ccccc1NS(=O)(=O)c1cc(NC(=O)/C=C/c2cccs2)ccc1N1CCOCC1	-11%
Cc1ccc(S(=O)(=O)Nc2cccc(C(=O)NCCCn3ccnc3)c2)cc1F	14%
CC(=O)Cc1nsc(Nc2ccc(C)cc2)n1	?
O=C(c1ccc(NC(=S)NCc2ccco2)cc1)N1CCOCC1	-9%
CC(C)c1ccc(NC(=O)c2snc3ccc(Cl)cc23)cc1	-22%
O=C(CC(C(=O)O)c1ccccc1)c1cccs1 (centres undefined)	-9%
CCc1nn(CC(=O)NCCC(C)C)c(=O)c2cc3c(OC)cccc3n12	2%
COc1ccc(C2CC2/C(C)=N/OC(=O)c2cccs2)cc1 (centres undefined)	-7%
CCn1c(SCC(=O)N=Nc2c(O)[nH]c3ccccc23)nc2ccccc21	-13%
O=C(NCCc1ccccn1)C1CCN(S(=O)(=O)c2ccc(Cl)cc2)CC1	8%
COC(=O)c1cc(CSc2nc3ccccc3[nH]2)oc1C	-11%
CC(=O)Nc1ccc(NC(=S)Nc2ccc(F)cc2)cc1	12%
CC(SCc1ccccc1)C(=O)N/N=C/c1cccs1 (centres undefined)	10%
COc1cc(/C=C2\SC(=O)NC2=O)ccc1OCc1ccc(Cl)nc1	3%
Cn1c2ccccc2c2ccc3c(c21)C(=O)C=CC3=O	25µM*
COc1ccc(CNC(=O)c2cc3c(s2)CS(=O)C3)cc1 (centres undefined)	-5%
COc1cc2c(cc1OC)C(c1ccc(-c3ccccc3Cl)o1)=NCC2	-7%
C[C@]12c3[nH]c4cc(-c5ccco5)ccc4c3CCN1C(=O)[C@@H](CC(=O)NCC13CC4CC(CC(C4)C1)C3)C[C@@H]2C(=O)N1CCOCC1	-17%
Cc1ccccc1NS(=O)(=O)c1cc(C(=O)Nc2cccnc2)ccc1C	-19%
(more compounds)
SMILES	VDR inhibitor
CCc1cc(C(=O)Cc2nc3ccccc3s2)c(O)cc1OCC(=O)O	0%
O=C(Nc1cccnc1)/C(N=Nc1cccnc1)=C(\O)c1ccccc1	-18%
CCN(CCCNC(=O)CCNC(=O)Cn1ccc2ccccc2c1=O)c1ccccc1	2%
CCn1c(CCc2ccccc2)n[nH]c1=S	-10%
Cc1ccc(S(=O)(=O)N(C)CC(=O)OCc2nnc(-c3ccccc3)o2)cc1	-1%
CSC1=NSC2=NC(=O)/C(=C/c3coc4ccc(O)cc4c3=O)C(=N)N12	?
COc1ccc(CNC(=O)C2CC(c3ccc(F)cc3)=NO2)cc1 (centres undefined)	-7%
Cc1cccc(NC(=O)N2CC(=O)Nc3sc4c(c3C2c2ccccc2)CCCC4)c1C (centres undefined)	3%
CCCc1nnc(SCC(=O)N2CCCCC2)n1CC1CCCO1 (centres undefined)	7%
Cc1c(C(C)(C)O)[nH]c2ccc(C(F)(F)F)cc12	-10%
Cc1ccc(-c2nn(CC(=O)O)c(=O)c3ccccc23)cc1	-9%
CCC(=O)N1CCc2cc(S(=O)(=O)NC(CC(C)C)C(=O)NCc3ccc(F)cc3)ccc21 (centres undefined)	-1%
Cc1ccc2c(c1)C1CN(C)CCC1N2C(=S)NC(=O)c1ccc(Br)cc1 (centres undefined)	-6%
COC(=O)C1=C[C@@H](C(=O)OC)[C@@H]2C3=C(C(=O)[C@@]2(C)NC(=O)c2ccccc2)[C@H](C)n2c(=O)n(C)c(=O)n2[C@@H]3C1	-14%
Cc1sc(NC(=O)c2ccc(Br)s2)c(C(N)=O)c1C	14%
CCCn1c2c(c(O)c(C(=O)Nc3ccc(OC)cc3)c1=O)CCCC2	-15%
O=C(c1ccncc1)N1CCC2(CCCN(C(c3ccccc3)c3ccccc3)C2)CC1	?
COc1ccc(C(=O)N2CCCC(CNC(=O)c3ccccc3Cl)C2)o1 (centres undefined)	?
CC[C@@]12C(=O)N(c3cccc(F)c3)C(=O)N1[C@H](c1ccc(F)cc1)[C@@H]1C(=O)N(C3CCCCC3)C(=O)[C@@H]12	-6%
O=C1CS(=O)CN1c1ccc(Oc2ccccc2)cc1 (centres undefined)	2%

Retrieved by structure from the list above:
SMILES	VDR inhibitor
O=C1CS(=O)CN1c1ccc(Oc2ccccc2)cc1 (centres undefined)	2%
Cc1cccc(NC(=O)N2CC(=O)Nc3sc4c(c3C2c2ccccc2)CCCC4)c1C (centres undefined)	3%

Going on with the list.
SMILES	VDR inhibitor
COc1ccc(Cl)cc1NC(=O)c1cnc2sccn2c1=O	14%
CCCCN(C(=O)c1cccc(S(=O)(=O)N2CC(C)OC(C)C2)c1)c1c(N)n(CCCC)c(=O)[nH]c1=O (centres undefined)	-6%
C=CCNC(=O)NC(=O)c1csc([N+](=O)[O-])c1	-9%
O=C(Nc1c2c(nc3c1CCC3)CCCC2)c1ccccn1	-8%
Cc1cc(N2CCC(C(=O)Nc3ccc(Cl)cc3)CC2)n2nc(C)c(-c3ccc(Cl)cc3)c2n1	-15%
Clc1cc(Cl)cc(CN2CCSCC2)c1	8%
O=C(NC(NC1CCS(=O)(=O)C1)C(Cl)(Cl)Cl)c1ccc(Br)cc1 (centres undefined)	24%
Cn1ccnc1	-1%
O=C(c1cccc(Cl)c1)N1CCn2c1nc1ccccc12	-13%
CCCn1c(N)c(N(CCOC)C(=O)c2cc3c(s2)CCCCC3)c(=O)[nH]c1=O	4%
C=CCNC(=S)N(CC)c1cccc2ccccc12	4%
Cc1ccc(O)c(C(=O)c2cnn(C(=O)COc3ccc(Cl)cc3)c2)c1	-5%
OCCC1CN(Cc2cccc(-c3ccco3)c2)CCN1Cc1ccsc1 (centres undefined)	-15%
CCCC(C(=O)NC1CCCC1)N(CCN(CC)CC)C(=O)c1snc(C(N)=O)c1N (centres undefined)	5%
CCSc1nnc(NC(=O)C(C)(C)C)s1	9%
O=C(CNC(=O)c1ccccc1Cl)N/N=C/c1ccc2c(c1)OCO2	-5%
COc1ccc(C(C(=O)NC(C)(C)C)N(Cc2cccnc2)C(=O)CCC(=O)Nc2cc(C)on2)cc1 (centres undefined)	-9%
COc1ccc(NC(=O)C2CC(c3c(F)cccc3Cl)=NO2)cc1 (centres undefined)	-17%
CCOc1ccccc1NC(=O)CCCN1C(=S)NC(C)(C)CC1C (centres undefined)	-16%
C=C(C)c1cccc(C(C)(C)NC(=O)Nc2ccc(C(C)=O)cc2)c1	-6%
Cc1sc2nc(CN3CCCC3)nc(Cl)c2c1C	?
COc1cc(/C=C2\SC(=O)NC2=O)ccc1Oc1ccc([N+](=O)[O-])cn1	?
CCOC(=O)C(Cc1ccc(O)cc1)NC(=O)CNC(=O)C1CCCN1C(=O)OC(C)(C)C (centres undefined)	1%
COc1ccc(CN2CCCCCC2)cc1OC	6%
NCCNc1cccc2ccccc12	50µM*
CCOc1ccc(S(=O)(=O)N(C)C)cc1-c1nc2c(C(C)(C)C)nn(C)c2c(=O)[nH]1	7%
CC(C)Sc1nc2c(c(=O)n1C)SC(C)C2 (centres undefined)	-32%
CCN1C(=O)c2ccccc2S(=O)c2ccc(C(=O)N3CCCC3)cc21 (centres undefined)	0%
Cc1ccc2cc(CN(CCc3ccccc3)C(=S)NCCCN(C)C)c(=O)[nH]c2c1	-5%
c1ccc(CN2CCN(c3nc(N4CCOCC4)c4ccccc4n3)CC2)cc1	5%
CC1CCN(C(=S)NCCc2ccccc2)CC1	3%
CCOC(=O)C[C@H]1c2cc(F)ccc2S(=O)(=O)N1C(C)C	4%
COc1ccc(Br)cc1C1SCCN1S(C)(=O)=O (centres undefined)	-2%
CC(=O)c1cccc(OC(=O)c2cc(S(=O)(=O)N3CCOCC3)ccc2N2CCCC2)c1	17%
O=C(/C=C/Nc1ccccc1OC(F)(F)F)C(F)(F)F	14%
CCOc1ccc(-c2cc(C(=O)NCCCn3ccnc3)c3cc(Br)ccc3n2)cc1	0%
Cc1cccc(C2c3[nH]c4ccccc4c3CCN2C(=O)c2cc3c([nH]c2=O)CCCC3)n1 (centres undefined)	11%
COc1ccc(CN(C)C(=O)Cn2cnc3c(OCc4ccccc4)ncnc32)cc1OC	0%
COc1ccc(Cc2nnc(NC(=O)c3cccc(C)c3)s2)cc1	-9%
CCOC(=O)C1=C(C)N(Cc2ccccc2)C(=O)NC1c1ccc(OC)cc1 (centres undefined)	6%

Molecules above that contain bromine, in the order listed:
SMILES	VDR inhibitor
O=C(NC(Cc1ccccc1)C(=O)O)/C(=C\c1ccccc1)NC(=O)c1ccc(Br)o1 (centres undefined)	-3%
Cc1ccc(-c2nnc3n2N=C(c2ccc(Br)cc2)CS3)cc1	-15%
Cc1ccc2c(c1)C1CN(C)CCC1N2C(=S)NC(=O)c1ccc(Br)cc1 (centres undefined)	-6%
Cc1sc(NC(=O)c2ccc(Br)s2)c(C(N)=O)c1C	14%
O=C(NC(NC1CCS(=O)(=O)C1)C(Cl)(Cl)Cl)c1ccc(Br)cc1 (centres undefined)	24%
COc1ccc(Br)cc1C1SCCN1S(C)(=O)=O (centres undefined)	-2%
CCOc1ccc(-c2cc(C(=O)NCCCn3ccnc3)c3cc(Br)ccc3n2)cc1	0%

Shown as a hit in VDR inhibitor, among the entries above:
SMILES	VDR inhibitor
Cn1c2ccccc2c2ccc3c(c21)C(=O)C=CC3=O	25µM*
NCCNc1cccc2ccccc12	50µM*

(listing goes on)
SMILES	VDR inhibitor
COc1cccc2c3cccc(OC)c3c3[nH]cnc3c12	-9%
O=C(CCS(=O)(=O)c1ccc(Br)cc1)N1CCN(c2ccccc2F)CC1	-7%
CC12CCC(C(=O)NCc3ccc4c(c3)OCO4)(CC1=O)C2(C)C (centres undefined)	-1%
OCCOCCNc1ncnc2c1cnn2-c1ccc(Cl)cc1	14%
